# Screening results (PubChem BioAssay)
# GLA inh pH 4.5 – alpha-galactosidase A (human) inhibition, pH 4.5. P06280. purified enzyme, 4-MU-alpha-Gal fluorescence, pH 4.5. activity change, negative = inhibition, % at 105 µM. 230,000 tested, under 10 active. AID 1467; inconclusive = small, poorly fitted or top-dose-only inhibition, or a rising curve; inactive = flat fitted curve, though single readings scatter; no compound was filed as active;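 also: 0% = full activity with enzyme and -100% = basal without enzyme; dose as in the result columns while the protocol names 77 µM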
# Target sequence (P06280 whole entry, looked up): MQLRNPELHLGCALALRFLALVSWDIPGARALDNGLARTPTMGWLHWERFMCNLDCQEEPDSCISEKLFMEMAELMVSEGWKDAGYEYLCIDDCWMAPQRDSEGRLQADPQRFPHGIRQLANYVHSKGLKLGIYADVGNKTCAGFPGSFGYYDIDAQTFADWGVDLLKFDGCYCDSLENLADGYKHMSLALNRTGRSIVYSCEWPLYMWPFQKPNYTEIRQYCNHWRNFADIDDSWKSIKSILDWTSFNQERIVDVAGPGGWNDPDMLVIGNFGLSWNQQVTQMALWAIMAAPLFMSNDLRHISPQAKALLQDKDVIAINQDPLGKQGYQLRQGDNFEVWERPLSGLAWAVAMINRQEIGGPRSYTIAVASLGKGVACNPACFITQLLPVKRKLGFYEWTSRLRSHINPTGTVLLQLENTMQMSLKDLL
# Rango dissoc inh – inhibition of RanGTP-driven Rango-importin beta dissociation | O95149+P62826 | AID 540253 | Biochemical FRET Rango-importin beta, RanGTP-induced dissociation | hit rate 0.071% among 340,000 | Potency, µM (top dose mostly 46.1 µM), for the others: at the top dose activity change, negative = inhibition; active means falling FRET ratio curve, often poorly fitted, with flat reads before Ran was added; inconclusive means other falling curves, or compound fluorescence or quenching; inactive means flat or rising ratio curve;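 also: potency is read from the fitted curve at half-maximal effect; % of control where 0% means no effect; nearly all actives have a fitted effect of over 45% in size; -100% = wells without RanGTP and RCC1; the record marks most hits as doubtful in a second field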
#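 Rango (0.1 uM)–importin beta (0.25 uM) complex; RanGTP-RCC1 trigger; 45 min RT; CFP/YFP FRET read.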
# miR-21 FLuc – raises the signal of a miR-21 reporter; HeLa miR-21 FLuc reporter, luciferase, 48 h; Potency, µM (series often up to 38.3 µM), inactives show top-dose reporter change, positive = more light; 340,000 tested, under 10 active; AID 2288; active = well fitted rising curve with a large enough effect; inconclusive = small, poorly fitted or top-dose-only effect; inactive = no such curve, though single readings can be large or run the other way;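 also: % of control where 0% means no effect; miR-21 action dims this reporter so a rising signal means less miR-21 action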
#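 Luminescence from a firefly luciferase reporter carrying a miR-21 binding site downstream, stably expressed under a CMV promoter in HeLa cells that make miR-21 endogenously, reports miRNA modulation after 48 h compound exposure up to approximately 40uM final.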
# Rango complex inh – inhibitors of Rango-importin beta complex formation | Rango CFP/YFP FRET sensor + importin beta, 45 min | AID 540263 | Potency, µM (titrated, usually from 92.2 µM), inactives show top-dose inhibition of complex formation | Q14974 | hit rate 0.031% among 340,000; active = rising FRET ratio curve, often small or poorly fitted; inconclusive = mostly compound fluorescence or quenching in the first reads; inactive = flat curves in all reads;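 also: potency is read from the fitted curve at half-maximal effect; 0% = DMSO wells and 100% = buffer wells lacking importin beta; nearly all actives have a fitted effect of over 15% in size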
#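 FRET biosensor (snurportin 1 IBB flanked by EYFP and cerulean), 50 nM, with compound 5 min, then 0.125 microM importin beta in PBS, 1 mM DTT, 0.02% Tween-20, 0.1% BSA. CFP/YFP ratio read after 45 min at room temperature; pre-read flags interference.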
# Active calls of the source: *; ? = inconclusive; . = not tested or not shown; & = joins results of further samples. These rows are one share of the data (hit frequency here may not be typical).
# Start of the data: the first 4 records, to show the layout:
GLA inh pH 4.5	Rango dissoc inh	miR-21 FLuc	Rango complex inh	structure
0.9	1.7%	3.7%	-0.1%	O=C(COc1ccccc1)NCC1(N2CCCCC2)CCCCC1
2.5	7.3%	11.7%	?	C[N+]1(C)CCC(=C2c3ccccc3CC(=O)c3sccc32)CC1
.	7.2%	.	-3.6%	CCOc1ccc(CN(C)C(=O)c2ccc(S(=O)(=O)N(C)c3ccccc3OC)cc2)cc1
.	12.1%	.	3.5%	CN(C(=O)CSc1nc2sc3c(c2c(=O)n1C)CCC3)C1CCS(=O)(=O)C1 (centres undefined)

# The list itself, from the first entry:
GLA inh pH 4.5	Rango dissoc inh	miR-21 FLuc	Rango complex inh	structure
0.9	1.7%	3.7%	-0.1%	O=C(COc1ccccc1)NCC1(N2CCCCC2)CCCCC1
2.5	7.3%	11.7%	?	C[N+]1(C)CCC(=C2c3ccccc3CC(=O)c3sccc32)CC1
.	7.2%	.	-3.6%	CCOc1ccc(CN(C)C(=O)c2ccc(S(=O)(=O)N(C)c3ccccc3OC)cc2)cc1
.	12.1%	.	3.5%	CN(C(=O)CSc1nc2sc3c(c2c(=O)n1C)CCC3)C1CCS(=O)(=O)C1 (centres undefined)
-5.7	0.6%	3.0%	2.5%	CC1(C)CN(c2ccc(C(=O)c3ccccc3)cc2)C1=O
-1.3	42.3%	-7.0%	-0.9%	Cc1nn(-c2ccccc2)c(-c2ccccc2)c1C(=O)O
.	4.1%	.	0.1%	O=C(COC(=O)c1nc(Cl)ccc1Cl)Nc1ccc(Cl)cc1
.	-1.9%	.	-12.2%	Nc1ccc(S(=O)(=O)NN=Cc2ccccc2[N+](=O)[O-])cc1
-6.2	-11.8%	13.9%	-0.8%	Cc1cccc(CSc2nc3c(c(-c4cccs4)c2C#N)CN(C)CC3)c1
0.7	18.2%	-1.7%&0.6%	-4.5%	COc1ccc(CCN2CC(C(=O)NCCc3ccc(C)cc3)CC2=O)cc1OC (centres undefined)
5.9	15.2%	-1.0%	8.5%	CCCCN(C)C(=O)CS(=O)(=O)Cc1nc(-c2cccc(OC)c2)oc1C
-4.5	6.3%	-7.0%	2.2%	COC(=O)c1ccc(CNCC(=O)Nc2ccc(C(=O)OC)cc2)cc1
-6.1	4.0%	-0.6%	-1.5%	Cc1cc(C)cc(OCC(=O)Nc2nonc2NC(=O)COc2cc(C)cc(C)c2)c1
-0.3	.	-6.0%	.	Cc1ccc(C(=O)NC2CC3CCCC(C2)N3C(=O)NC2CCCCC2)cc1 (centres undefined)
-27.3	3.3%	-27.6%	4.9%	CC1CCCCN1C(=O)CSCC(=O)Nc1nc(-c2cccs2)cs1 (centres undefined)
-1.6	0.9%	-0.2%	0.9%	CC1CCCN(Cc2nc3c(c(=O)n(C)c(=O)n3C)n2Cc2c(F)cccc2Cl)C1 (centres undefined)
1.0	-12.5%	-4.4%	?	Cc1ccccc1C1CC(c2ccc(Br)cc2)Nc2nc(N)nn21 (centres undefined)
-4.7	-17.8%	3.8%	-3.0%	CNC(=S)N/N=C/c1ccc(-c2ccc(Cl)c([N+](=O)[O-])c2)o1
.	28.5%	-6.7%	0.7%	CCC(=O)N1CCc2cc(S(=O)(=O)N3CCN(c4ccccc4)CC3)ccc21
.	2.0%	7.0%	-2.1%	COc1ccc(OC)c(NC(=S)N2c3ccccc3CC2C)c1 (centres undefined)

# Other results:
GLA inh pH 4.5	Rango dissoc inh	miR-21 FLuc	Rango complex inh	structure
1.2	-14.0%	-32.5%	1.3%	CC1CCCN(C(=S)Nc2ccc(Nc3ccccc3)cc2)C1 (centres undefined)
.	-0.6%	-12.0%	0.1%	COc1ccc(C(=O)COc2ccc3c(C)cc(=O)oc3c2)cc1
.	-19.7%	-9.7%	?	O=C(O)CC/C(=C\c1cc2c(cc1Br)OCO2)c1nc2ccccc2s1
.	-7.8%	.	0.1%	COc1ccc(-c2cn3c(C)c(C(=O)NCc4ccc5c(c4)OCO5)sc3n2)cc1
.	1.5%	.	-1.2%	Cc1ccc(CN(N=Nc2nonc2N)c2nonc2N)c(C)c1
.	-0.3%	1.5%	1.0%	O=C(CCN1C(=O)/C(=C/c2ccccc2Cl)SC1=S)NCCc1ccc(O)cc1
3.2	7.9%	11.3%	0.4%	S=C(NCc1ccc(Cl)cc1)Nc1ccc(Cl)cc1Cl
-10.5	8.5%	-43.6%	-0.3%	Cc1cc(C(=O)NNC(=S)Nc2ccccc2)nn1C
0.6	-4.8%	-3.1%	?	O=C(CSCC(=O)OCC(=O)c1ccc(Br)cc1)Nc1cccc2ccccc12
1.1	-25.5%	-19.4%	-4.3%	CN1CCN(C(=S)c2cn(Cc3cccc(F)c3)c3ccccc23)CC1
-6.4	-0.1%	-6.5%	-0.1%	COc1ccc(NC(=O)c2cc([N+](=O)[O-])ccc2N2CCN(C)CC2)cc1
-4.7	0.2%	6.4%	-1.9%	Cc1ccc(CN(c2ccc(C(=O)NCc3ccc4c(c3)OCO4)cc2)S(C)(=O)=O)cc1
-10.2	0.8%	4.5%	-6.2%	CC1=C(C(=O)Nc2ccccc2F)C(c2cccs2)NC(=S)N1 (centres undefined)
.	-4.4%	7.5%	?	CCOc1ccccc1CN1CCN(Cc2ccc3cccc(OC)c3n2)CC1CCO (centres undefined)
.	?	.	?	COc1ccc(C2=Cc3ccc(OC(C)=O)cc3OC2)cc1
6.1	16.3%	-57.3%	-5.9%	Cc1cc(NC(=O)C2COc3ccccc3O2)no1 (centres undefined)
11.6	-10.6%	-16.3%	-0.3%	Cc1ccccc1Nc1nc(N)nc(COc2ccc(C#N)cc2)n1
.	26.5%	.	0.3%	Cc1cccc(C(=O)NCC(=O)N2CCN(S(=O)(=O)c3ccccc3)CC2)c1
-2.6	0.2%	-1.8%	-0.8%	CN1CCN(c2ncccc2S(=O)(=O)N2CCCCC2)CC1
4.2	0.1%	3.2%	3.2%	Cc1cc(-c2ccccc2)nc2[nH]n(-c3ccccc3)c(=O)c12

# Whole records, quoted from the list:
# COc1ccc(C2=Cc3ccc(OC(C)=O)cc3OC2)cc1 across the screens: GLA inh pH 4.5 = .; Rango dissoc inh = ?; miR-21 FLuc = .; Rango complex inh = ?
# CN1CCN(C(=S)c2cn(Cc3cccc(F)c3)c3ccccc23)CC1 across the screens: GLA inh pH 4.5 = 1.1; Rango dissoc inh = -25.5%; miR-21 FLuc = -19.4%; Rango complex inh = -4.3%

# Further records.
GLA inh pH 4.5	Rango dissoc inh	miR-21 FLuc	Rango complex inh	structure
5.8	-3.5%	-2.9%	-0.1%	COc1ccc(OC)c(NC(=O)c2cnn(-c3ccccc3Cl)c2NC(=O)c2ccco2)c1
4.2&4.3&2.6	-15.5%	-0.8%	1.9%	NS(=O)(=O)c1cc2c(cc1Cl)NCNS2(=O)=O
-1.8&-0.9	-8.4%&-20.6%	-10.7%	-0.5%&0.6%	CN1C2CCC1CC(OC(=O)c1c[nH]c3ccccc13)C2 (centres undefined)
.	-8.1%	0.0%	0.2%	COc1ccccc1CN1CC(=O)N2CSC[C@H]2C1=O
.	4.2%	-0.9%	1.4%	CN1C(c2ccccc2)CCOS1(=O)=O (centres undefined)
-5.1	8.0%	-4.1%	3.6%	CCCOc1ccc(NC(=O)C2CC(=O)N/C(=N/N=C(\C)CCc3ccc4c(c3)OCO4)S2)cc1 (centres undefined)
.	-5.4%	-8.3%	1.3%	CCCc1cc(=O)oc2cc(OC(C)C(=O)NCc3ccccn3)c(Cl)cc12 (centres undefined)
-2.3	-3.7%	-7.8%	-0.8%	Cc1ccc2nc(NC3=NCN(Cc4cccnc4)CN3)nc(C)c2c1
1.2	-3.1%	0.4%	2.6%	CCOC(=O)c1cccc(NC(=O)CSc2nnc(COc3ccc(Cl)cc3)o2)c1
-0.8	-3.7%	-0.2%	1.5%	O=C(NCN1CCc2ccccc2C1)c1ccccc1
0.9	4.5%	-0.1%	-0.1%	O=C(CCCN1C(=O)c2ccccc2C1=O)Oc1ccc(F)cc1
-0.5	16.8%	-1.7%	4.1%	COc1cccc(OCc2nnc(SCC(=O)NCc3ccco3)n2C)c1
.	6.5%	1.5%	0.2%	Cc1ccc(C)c(NC(=O)CCCCCN2C(=O)[C@@H]3Cc4ccccc4CN3C2=O)c1
-3.5	0.3%	-8.9%	3.3%	Cc1ccc(-c2nnc3n2N=C(c2ccc(Br)cc2)CS3)cc1
-4.2	0.5%	0.3%	-3.6%	O=C(COC(=O)c1ccncc1)NCCCc1ccccc1
.	2.1%	-2.7%	2.2%	O=C(NCCSCc1ccco1)c1ccc(=O)[nH]c1
5.0	-3.9%	0.7%	1.5%	COc1ccc(CN2CCCC(C(=O)N3CCCC3)C2)cc1 (centres undefined)
1.6	-12.6%	-2.0%	-4.2%	CC(=O)NC1CCN(C(=O)N2CCCC2)CC1
.	1.4%	.	-0.3%	CCOc1ccc(NC(=O)COC(=O)CN2CCCCCC2=O)cc1
3.7	-4.2%	-2.2%	-1.7%	CC(CC1CC(C)(C)OC1=O)C(=O)Nc1ccc([N+](=O)[O-])cc1 (centres undefined)

# The listing continues.
GLA inh pH 4.5	Rango dissoc inh	miR-21 FLuc	Rango complex inh	structure
.	?	0.6%	?	O=C(NC(Cc1ccccc1)C(=O)O)/C(=C\c1ccccc1)NC(=O)c1ccc(Br)o1 (centres undefined)
2.5	-14.3%	-67.1%	5.3%	O=C(Nc1cc2c(cc1Cl)OCCO2)c1ccco1
-8.2	8.4%	-0.6%	7.6%	O=S(=O)(c1ccc(F)cc1)N(CCO)CC(O)Cn1c2ccccc2c2ccccc21 (centres undefined)
.	?	.	2.2%	O=c1[nH]cc(S(=O)(=O)N2CCN(c3cccc(C(F)(F)F)c3)CC2)c(=O)[nH]1
.	18.4%	.	0.7%	CCOC(=O)N1CCN(c2ccc(S(=O)(=O)N3CCC(C)CC3)cc2[N+](=O)[O-])CC1
.	0.4%	3.6%	1.4%	CCOC(=O)N1CCN(S(=O)(=O)N2CCCC(C(=O)NCCc3ccccc3)C2)CC1 (centres undefined)
6.1	-10.4%	-58.6%	4.0%	O=C(CCSc1ccc(Cl)cc1)N1CCOCC1
-0.3	-3.2%	-4.2%	0.1%	COCCn1c(Cc2ccccc2)nnc1SCC(=O)N1CCCCC1C (centres undefined)
-3.0	-14.5%	-1.2%	-4.5%	CCNC(=S)NNC(=O)c1cccnc1
-4.2	7.3%	-0.3%	-4.4%	O=C(Nc1ncccn1)C1CCCCC1
-6.1	1.3%	-1.5%	0.3%	Cc1cc(=O)oc2cc(OC(C)C(=O)Nc3ccc(N4CCOCC4)cc3)ccc12 (centres undefined)
.	-5.8%	.	-0.2%	Cc1ccccc1-c1nnc(SCC(=O)c2c(N)n(C3CC3)c(=O)[nH]c2=O)o1
-1.7	3.0%	-12.4%	0.3%	Cc1cc(C(F)(F)F)n2ncc(-c3ccccc3)c2n1
-5.1	-0.4%	-9.4%	-0.8%	Cc1ccc(N/C=C2\CCCCC2=O)c(C)c1
.	-7.3%	-59.8%	-0.5%	N/C(=N\OC(=O)c1ccoc1)c1ccc(Br)cc1
.	13.1%	.	5.2%	Cc1[nH]c2ccccc2c1C(=O)COC(=O)c1ccccc1O
.	6.9%	-1.4%	1.2%	CCCC(C(=O)NC1CCCC1)N(CCN(CC)CC)C(=O)c1snc(C(N)=O)c1N (centres undefined)
4.2	?	-1.0%	-1.1%	OCCC1CN(Cc2cccc(-c3ccco3)c2)CCN1Cc1ccsc1 (centres undefined)
.	-2.0%	-45.2%	-2.5%	CCOc1ccc2[nH]c3c(NCCCOC)ncnc3c2c1
-3.8	.	-3.2%	.	CCN(CC)CCCN1C(=O)C(O)=C(C(=O)c2sc(C)nc2C)C1c1ccc(C)o1 (centres undefined)
-0.1	-12.5%	10.0%	0.4%	Cc1ccc(O)c(C(=O)c2cnn(C(=O)COc3ccc(Cl)cc3)c2)c1
?	-4.9%	-11.7%	0.5%	C=C(C)c1cccc(C(C)(C)NC(=O)Nc2ccc(C(C)=O)cc2)c1
5.0	24.9%	-7.0%	-0.5%	CCOc1ccccc1NC(=O)CCCN1C(=S)NC(C)(C)CC1C (centres undefined)
